# PKD1 inh = blocks activity of human protein kinase D1 | Q15139 | PKD1 kinase fluorescence polarization assay | inhibition, %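 (about 10 µM by stock and volumes)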 | hit rate 0.056% among 200,000;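 active = inhibition of 50% or more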;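 note: controls were vehicle for no effect and a reference inhibitor for full effect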
# Target sequence (Q15139 whole entry, looked up): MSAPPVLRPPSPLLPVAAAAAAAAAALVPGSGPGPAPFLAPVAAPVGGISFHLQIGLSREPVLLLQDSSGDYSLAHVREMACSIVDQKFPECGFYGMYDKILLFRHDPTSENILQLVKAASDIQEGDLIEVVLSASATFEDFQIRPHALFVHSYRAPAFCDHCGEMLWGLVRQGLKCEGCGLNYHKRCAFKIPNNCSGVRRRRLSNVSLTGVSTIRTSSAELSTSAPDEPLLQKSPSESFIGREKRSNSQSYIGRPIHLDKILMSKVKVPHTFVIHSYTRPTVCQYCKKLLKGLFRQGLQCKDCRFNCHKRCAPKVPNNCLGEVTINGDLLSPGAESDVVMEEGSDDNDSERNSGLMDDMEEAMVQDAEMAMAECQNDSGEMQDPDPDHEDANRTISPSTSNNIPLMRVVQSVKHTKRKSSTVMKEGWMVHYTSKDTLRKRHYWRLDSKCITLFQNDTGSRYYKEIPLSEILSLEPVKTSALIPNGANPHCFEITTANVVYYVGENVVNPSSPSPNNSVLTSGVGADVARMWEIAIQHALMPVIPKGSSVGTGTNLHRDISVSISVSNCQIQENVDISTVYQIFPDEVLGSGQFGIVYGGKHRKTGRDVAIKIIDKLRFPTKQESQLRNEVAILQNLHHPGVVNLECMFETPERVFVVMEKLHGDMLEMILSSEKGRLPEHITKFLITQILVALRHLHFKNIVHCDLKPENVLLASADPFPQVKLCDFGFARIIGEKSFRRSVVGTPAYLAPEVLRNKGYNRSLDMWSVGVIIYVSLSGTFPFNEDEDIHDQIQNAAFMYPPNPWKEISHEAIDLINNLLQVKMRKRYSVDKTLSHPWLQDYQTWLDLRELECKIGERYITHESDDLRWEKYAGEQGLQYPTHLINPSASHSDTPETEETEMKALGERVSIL
# Insulin prom inh = TRM-6 insulin promoter activity inhibition; TRM-6 cells (human fetal islet line), insulin promoter-eGFP reporter, imaging; reporter expression induced with tamoxifen; inhibition, % at 2 µM; hit rate 0.9% among 130,000; AID 1273;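 active = inhibition above the mean plus 3 SD, with well images judged a real hit on visual review, cut at about 60% in these data, passing the limit was not always enough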
# GALR2 ag = GALR2 (human) receptor agonism. activation, %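 (tested at 5 µM)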. GALR2-expressing cells, agonist activation read-out. hit rate 0.48% among 140,000;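 active = above mean plus 3 SD of all compounds, about 5% in these data, not always enough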;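 note: 0% = vehicle buffer wells and 100% = reference agonist at full effect; tested in CHO reporter cells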
# RGS16-Gao = modulates binding between human RGS16 and Galphao | bead-based flow cytometry RGS16-Galphao binding, fluorescence; actives lie on both sides | binding response (% of control), % at 10 µM | hit rate 0.38% among 220,000;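 active = below 25% or above 175%, edge rows of some plates excepted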;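 note: Galphao activated by GDP with aluminum fluoride before binding; 100% = wells without compound and 0% = beads without RGS; some results beyond the cut were filed as inactive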
# HSV augment = increases HSV replication in cells. hit rate 0.005% among 220,000. maximum fold increase. HSV replication augmentation in cells, fold increase;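 active = peak rise of 1.5-fold or more in the series; tested in PC3 cells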;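 note: first round at 10 µM; read as green reporter fluorescence; hits show the peak of a series up to 25 µM; 1 = signal of infected wells without compound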
# Insulin prom inh cell count = second read-out of Insulin prom inh, no call of its own (marks repeat the call); normalized cell count, %; measured here: cell count, toxicity; reference of the scale not given here;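 cells exposed to compound for 48 h; stained nuclei by imaging scaled within each plate; lower means fewer cells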
# HSV augment primary fold = also measured in HSV augment; calls as there; fold increase; compound at 10 µM; measured here: primary screen fold increase 10 uM; tested in PC3 cells;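 GFP signal in the first replicate; 1 = infected wells without compound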
# * = called active by the depositor; i = inactive; . = no result given.
SMILES	PKD1 inh	Insulin prom inh	Insulin prom inh cell count	GALR2 ag	RGS16-Gao	HSV augment	HSV augment primary fold
Cc1ccc(S(=O)(=O)c2ccc(Oc3cccc(C)c3)cc2)cc1	-4	19	122	0.0	101	i	0.97
CCOC(=O)C1=C(O)/C(=C/c2cn(CC(=O)N3CCCC3)c3ccccc23)SC1=Nc1ccccc1	6	45	100	1.6	106	i	0.86
COc1cc(/C=C/C(=O)O)cc(S(=O)(=O)Nc2ccc(F)cc2)c1OC	-4	.	.	0.1	109	i	0.97
O=C(c1ccc2c3c(cccc13)CC2)C1CCCN(Cc2cccnc2)C1 (stereo unspecified)	-5	.	.	.	108	i	0.89
CC(C)c1nc(SCC(=O)Nc2ccc3c(c2)OCCO3)n[nH]1	6	-45	154	.	91	i	1.1
CCC(=O)NC(=S)Nc1cccc(C(C)=O)c1	-2	9	166	0.2	91	i	0.92
COc1cccc(-c2csc(N3CCN(C(=O)NC45CC6CC(CC(C6)C4)C5)CC3)n2)c1	1	-56	100	-3.3	103	i	0.89
Cc1c(N(C(=O)c2cnccn2)C2(C(=O)NC3CCCC3)CCCCC2)c(=O)n(-c2ccccc2)n1C	-2	-7	139	.	102	i	0.88
CCOC(=O)c1cnn(-c2ccccc2)c1NC(=O)c1ccc(C)cc1	2	.	.	-2.3	101	i	0.84
CCOC(=O)N/N=C(C)/C=C/c1ccco1	-14	-3	75	-1.2	99	i	0.97
CC(Oc1ccc(Cl)cc1Cl)C(=O)Nc1ccncc1 (stereo unspecified)	-9	.	.	-1.6	105	i	0.76
CCCCCCCCCC(=O)NNC(=O)c1c(O)c2ccccc2n(CCC)c1=O	-2	61	74	.	97	i	0.9
CC(C)CCNC1=NCCCCC1	-16	8	84	-0.6	101	i	0.7
Cc1ccc(-n2c(SCn3nnc4ccccc4c3=O)nnc2-c2cccnc2)c(C)c1	-5	.	.	-0.7	124	i	0.94
CCCCOc1ccc(C(=O)N/C(=C/C=C/c2ccccc2)C(=O)N2CCOCC2)cc1	-1	16	86	-1.5	45	i	0.9
CC1CCN(S(=O)(=O)c2ccc3ncn(CC(=O)N(C)C4CCCCC4)c(=O)c3c2)CC1	5	.	.	.	97	i	1.2
Cc1cccnc1NC(=O)C1CCCN(S(=O)(=O)c2ccc3c(c2)oc(=O)n3C)C1 (stereo unspecified)	16	.	.	-0.5	229	i	1
Cc1onc(-c2ccccc2)c1-c1n[nH]c(=S)n1-c1ccc(C(=O)O)cc1	-4	-3	133	-3.6	83	i	1
Cc1onc(-c2ccccc2)c1C(=O)N[C@@H]1C(=O)N2[C@@H]1SC(C)(C)[C@@H]2C(=O)O	-3	-5	102	-1.2	202	.	.
COc1ccc(-c2ccc(SCC(=O)Nc3nccs3)nn2)cc1OC	-1	-61	80	.	91	i	0.98
O=C1CSc2ccccc2N1Cc1ccccc1F	-3	.	.	-0.3	64	i	1.1
Cc1ccc(S(=O)(=O)N(C)C)cc1NC(=S)Nc1ccc2[nH]c(=O)[nH]c2c1	-1	.	.	.	99	i	0.94
CC1(C)Cc2c(C#N)c(NC3CCCCC3)nc(-c3ccco3)c2CO1	-7	.	.	-0.3	106	i	0.69
Cc1cc(Nc2ncc(Cl)cc2Cl)n(-c2ccccc2)n1	2	-35	123	0.5	142	i	1.1
COc1ccc(/C=C(\C#N)c2cc(OC)c(OC)cc2[N+](=O)[O-])cc1	.	.	.	.	100	i	0.92
COc1ccc(N2CCN(C(=O)C3COc4ccccc4O3)CC2)cc1 (stereo unspecified)	3	-9	115	-1.8	104	i	0.94
CC(C)NC(=O)c1ccc2c(c1)nnn2C	1	56	143	-2.7	103	i	0.97
CC(c1nnnn1C(C)(C)C)N(Cc1cccnc1)Cc1ccccc1Cl (stereo unspecified)	3	29	108	-0.9	98	i	0.98
COc1ccccc1C(=O)NCC(=O)Nc1cccnc1	-3	.	.	.	99	i	0.96
CCC(C)(C(=O)NC1CCCC1)N(C(=O)Cc1cccs1)c1c(C)n(C)n(-c2ccccc2)c1=O (stereo unspecified)	-7	.	.	.	98	i	1
CCOc1ccc2nc(N3CCC(C(=O)N4CCN(c5ncccn5)CC4)CC3)sc2c1	.	.	.	.	100	i	0.86
Cn1c(-c2ccccc2)cc(=O)c2ccccc21	-5	25	124	-1.0	103	i	0.96
CCOC(=O)CCSCC(=O)Nc1nnc(C)s1	-4	.	.	-0.7	109	i	0.91
CCCN1CNC(=S)N(c2cccc(C)c2C)C1	-7	23	93	-1.6	94	i	0.85
Cc1cc([N+](=O)[O-])c(C(C)(C)C)cc1N	-2	-48	67	-1.4	102	i	0.96
CCOc1ccc(NC(=O)CSc2n[nH]c(N)n2)c([N+](=O)[O-])c1	-14	22	107	-0.2	104	i	0.93
CC(=O)Nc1ccccc1OCc1nnc(-c2ccc(Cl)cc2)o1	-4	.	.	.	100	i	1
O=C(CNc1ccc2ccccc2c1)N/N=C/c1ccc(C(=O)O)cc1	1	-64	77	.	103	i	1.1
CCCCN(CCCC)C(=O)C1CC=CCC1C(=O)O (stereo unspecified)	4	-125	71	.	109	i	0.95
COCCN1C(=O)C(O)=C(C(=O)c2cccs2)C1c1ccccc1 (stereo unspecified)	-8	17	121	-2.4	101	i	0.98
COc1cc(C=O)ccc1OCC(=O)N1CCCC1	-6	.	.	.	95	i	0.98
Cc1ccccc1C(=O)Nc1ccc(N2CCN(C)CC2)nc1	-6	-36	156	.	115	i	1
CC1CCN(S(=O)(=O)c2ccc(NC(=O)CCN3C(=O)c4ccccc4C3=O)cc2)CC1	-3	20	122	-1.4	99	i	1.1
Cc1ccc(S(=O)(=O)N2CCN(C(=O)CSC3CCCC3)CC2)c(C)c1	2	-17	102	-1.3	103	i	0.96
O=C(CSc1nnnn1-c1ccccc1)c1ccc(O)cc1O	.	.	.	.	100	i	0.95
CCOC(=O)C1CCCN(C(=O)Nc2ccccc2)C1 (stereo unspecified)	-7	54	114	-3.0	102	i	0.95
Cc1ccc(C(=O)NNC(=O)c2cc3cc4ccccc4nc3s2)cc1	-2	.	.	1.6	99	.	.
CN(C)/C=N/C(=S)Nc1ccccc1Cl	-8	-27	144	.	100	i	1
Cn1c(SCc2nnc(-c3ccccc3)o2)nc2ccccc21	-5	7	143	.	103	i	0.97
C#CCOCCOCCOCCNc1nc(N2CCN(C(=O)[C@H](CCCCN)n3cc([C@@H](N)CC(C)C)nn3)CC2)nc(N2CCN(C(=O)[C@H](Cc3cc4ccccc4[nH]3)n3cc([C@@H](N)Cc4ccc(O)cc4)nn3)CC2)n1	-3	.	.	.	105	i	0.81
CN(CCOc1ccccc1)CC(=O)Nc1ccc(Cl)cc1[N+](=O)[O-]	-3	.	.	.	101	i	1
COc1ccc(-n2c(O)c(C=NCc3ccccn3)c3ccccc3c2=O)c(OC)c1	.	.	.	.	102	i	0.82
C=CCn1c(SCc2ccccc2)nc2scc(-c3ccc(C)o3)c2c1=O	-5	-19	99	-3.5	98	i	0.91
CN1[C@@H]2CC[C@H]1CC(OC(=O)C(CO)c1ccccc1)C2 (stereo partly specified)	8	23	131	-1.2	92	i	1
O=C(COc1ccccc1)Nc1ccccc1Oc1ccccc1	-3	-3	93	-0.5	107	i	1.2
Cc1ccsc1/C=N/n1c(-c2ccncc2)n[nH]c1=S	-10	33	127	0.6	81	.	.
COc1ccc(-c2csc(NC(=O)C3COc4ccccc4O3)n2)cc1OC (stereo unspecified)	-14	.	.	.	101	i	0.94
O=C(NC(=S)N1CCCCCC1)c1ccccc1Cl	0	-21	110	.	95	i	0.92
CCOC(=O)c1cnc(SCC(=O)Nc2nc(C)c(C)s2)nc1N	5	30	113	0.2	62	i	0.8
N#CC1(C#N)[C@@H](C(=O)C23CC4CC(CC(C4)C2)C3)C12CCOCC2	-4	29	124	-0.8	103	i	0.92

# Molecules above with a nitro group on carbon (4):
SMILES	PKD1 inh	Insulin prom inh	Insulin prom inh cell count	GALR2 ag	RGS16-Gao	HSV augment	HSV augment primary fold
COc1ccc(/C=C(\C#N)c2cc(OC)c(OC)cc2[N+](=O)[O-])cc1	.	.	.	.	100	i	0.92
Cc1cc([N+](=O)[O-])c(C(C)(C)C)cc1N	-2	-48	67	-1.4	102	i	0.96
CCOc1ccc(NC(=O)CSc2n[nH]c(N)n2)c([N+](=O)[O-])c1	-14	22	107	-0.2	104	i	0.93
CN(CCOc1ccccc1)CC(=O)Nc1ccc(Cl)cc1[N+](=O)[O-]	-3	.	.	.	101	i	1

# Next part
SMILES	PKD1 inh	Insulin prom inh	Insulin prom inh cell count	GALR2 ag	RGS16-Gao	HSV augment	HSV augment primary fold
CCn1cc(C2C(C(=O)Nc3cc(C)ccn3)=C(C)NC3=C2C(=O)CC(C)(C)C3)c(C)n1 (stereo unspecified)	-6	.	.	-0.9	103	i	0.86
Cc1c(-c2c(C#N)c(N)nc3c2CCCCCC3)cnn1C	3	.	.	-0.1	97	i	0.53
O=C(COc1ccccc1)Nc1ccc2c(c1)nc1n2CCOC1	4	.	.	-3.7	102	i	0.93
CC(=O)NCC1COc2ccccc2O1 (stereo unspecified)	.	.	.	.	99	i	0.94
COc1ccc(/C(N)=N/OC(=O)Cc2ccccc2)cc1	-5	-45	89	-0.6	106	i	0.78
O=C(/C=C/c1ccc(F)cc1)c1ccccc1Br	-1	-9	68	0.0	98	i	0.77
CN=c1scc(C)n1/N=C/c1ccc(O)c(O)c1O	9	4	39	-1.8	30	i	0.97
O=S(=O)(Nc1ccc(-c2cnco2)cc1)c1ccccc1	.	.	.	.	98	i	0.84
Cn1cc(/C=N/Nc2ccccc2)c2ccccc21	0	.	.	.	101	i	0.99
CCO[C@H]1OC(C(=O)NCc2ccccc2)=C[C@@H](C2CC2)[C@@H]1CCCO	6	.	.	.	104	i	1.1
C=CCN(CC=C)Cc1c(O)ccc2c1oc(=O)c1ccccc12	-6	.	.	-1.2	.	i	0.87
O=C(O)c1cc(N=Nc2c(O)ccc3ccccc23)cc(C(=O)O)c1	22	11	43	.	104	i	0.94
COCCCN=Cc1c(C)[nH]n(-c2ccc(Br)cc2Br)c1=O	6	-5	106	.	99	i	1.1
c1csc(CNc2ncnc3sccc23)c1	-4	31	131	-0.9	.	i	0.82
Clc1cccc(Cl)c1C1=NOC(c2nnc(-c3ccccc3)o2)C1 (stereo unspecified)	.	.	.	.	99	i	0.89
COc1ccc(-c2nnc(SCC(=O)Nc3cc(C)on3)n2N)cc1OC	-9	.	.	-2.2	104	i	0.95
Nc1nc2n(n1)C(c1ccccc1)CC(c1ccc(F)cc1)N2 (stereo unspecified)	-8	.	.	-0.3	101	i	0.83
Cc1cccc(NS(=O)(=O)c2ccc(C)c(C(=O)OCC(=O)Nc3cc(C)on3)c2)c1	-1	-70	104	-2.6	103	i	0.89
CCCOc1ccc(/C=C/C(=O)NCc2ccccc2)cc1	8	25	91	-0.8	118	.	.
Cc1ccc(/C=N/NC(=O)Cn2nccc2C)o1	-4	44	95	-1.9	104	i	0.96
COc1ccc(NC(=O)NC(C)C2CC3CCC2C3)cc1 (stereo unspecified)	-4	.	.	.	97	i	1
CN(C)CCN1C(=O)C(=O)/C(=C(/O)c2ccc(F)cc2)C1c1ccccc1 (stereo unspecified)	-16	.	.	0.0	103	i	0.93
CC/C(Cc1ccccc1)=N\NC(=O)c1cc(C)oc1C	-11	.	.	0.0	107	i	0.89
Cc1ccc(C)c2nc(SCC(=O)Nc3ccc4c(c3)OCO4)c(C#N)cc12	.	.	.	.	97	i	0.98
O=S(=O)(/C(=C/c1ccc(C(F)(F)F)cc1)c1nc2ccccc2[nH]1)c1ccccc1	9	50	63	1.5	107	i	0.52
O=C(O)CC/C(=N/Nc1ncc(C(F)(F)F)cc1Cl)C(=O)O	-4	18	102	.	99	i	0.98
Cc1ccc(OC(C)C(=O)Nc2ccc(C)c(S(=O)(=O)Nc3ccc(C)cc3C)c2)cc1 (stereo unspecified)	0	11	82	-1.4	94	i	0.97
N/C(=N\OC(=O)CCCCCN1C(=O)c2ccccc2C1=O)c1ccccn1	3	.	.	.	103	i	0.94

# Two entries drawn at random from those above:
SMILES	PKD1 inh	Insulin prom inh	Insulin prom inh cell count	GALR2 ag	RGS16-Gao	HSV augment	HSV augment primary fold
CCOc1ccc2nc(N3CCC(C(=O)N4CCN(c5ncccn5)CC4)CC3)sc2c1	.	.	.	.	100	i	0.86
COc1cc(C=O)ccc1OCC(=O)N1CCCC1	-6	.	.	.	95	i	0.98

# Screening results (PubChem)
